STAT3 SMM: STAT3 (human) binding. Small molecule microarray, His-STAT3 binding, anti-His fluorescence. calls only. 17,000 tested, 0.2% active. AID 624138;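 active = compounds whose four printed spots each show fluorescence over background unusually high for their array block, chance value under 7%; compounds were printed on slides so no solution concentration is given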;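 note: about 2 pmol printed per array spot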
Target sequence (P40763 whole entry, looked up): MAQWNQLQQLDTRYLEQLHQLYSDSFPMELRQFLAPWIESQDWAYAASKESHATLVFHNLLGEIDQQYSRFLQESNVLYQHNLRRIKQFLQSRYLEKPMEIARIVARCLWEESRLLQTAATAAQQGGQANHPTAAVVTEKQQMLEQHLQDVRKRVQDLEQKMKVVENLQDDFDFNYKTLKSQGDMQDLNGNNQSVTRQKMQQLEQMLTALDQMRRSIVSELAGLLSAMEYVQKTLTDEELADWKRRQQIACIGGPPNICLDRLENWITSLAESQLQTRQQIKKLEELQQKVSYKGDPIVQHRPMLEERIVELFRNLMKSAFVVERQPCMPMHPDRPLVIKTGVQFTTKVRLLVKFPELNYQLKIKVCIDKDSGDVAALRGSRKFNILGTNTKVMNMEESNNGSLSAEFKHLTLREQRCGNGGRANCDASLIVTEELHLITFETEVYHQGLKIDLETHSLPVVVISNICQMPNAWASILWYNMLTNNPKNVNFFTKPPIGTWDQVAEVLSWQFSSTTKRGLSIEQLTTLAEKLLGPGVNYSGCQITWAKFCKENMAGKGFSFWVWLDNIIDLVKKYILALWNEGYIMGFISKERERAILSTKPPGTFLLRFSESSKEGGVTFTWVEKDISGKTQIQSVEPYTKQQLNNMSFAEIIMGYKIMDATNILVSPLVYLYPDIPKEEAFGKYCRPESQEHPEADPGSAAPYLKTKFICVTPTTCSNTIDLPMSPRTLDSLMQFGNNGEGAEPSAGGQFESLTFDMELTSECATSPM
ID4 binder: binds human ID4 protein on microarray; calls only; 31,000 tested, 1.2% active; P47928; small molecule microarray, Flag-ID4 binding, fluorescence F/B; AID 624137;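 active = spot signal over background at p below 0.07 in all four prints; compounds were printed on slides so no solution concentration is given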;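 note: a binder raises fluorescence above local background on the spot; about 2 pmol printed per array spot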
Target sequence (P47928 whole entry, looked up): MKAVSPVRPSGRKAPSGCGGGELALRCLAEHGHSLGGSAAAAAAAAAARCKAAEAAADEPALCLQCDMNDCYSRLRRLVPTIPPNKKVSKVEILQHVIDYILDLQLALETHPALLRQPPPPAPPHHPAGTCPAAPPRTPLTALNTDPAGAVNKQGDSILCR
mut p53 SMM: binds human mutant p53 on microarray; calls only; 17,000 tested, 0.4% active; small molecule microarray binding, anti-GST fluorescence;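 active = compounds whose four printed spots each glow above background more than chance allows, each with a p-value under 7%; compounds were printed on slides so no solution concentration is given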;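 note: about 2 pmol printed per array spot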
c-Myc SMM: binders of human c-Myc; P01106; small molecule microarray, His-c-Myc binding, anti-His fluorescence; calls only; 17,000 tested, 1.5% active;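 active = spot fluorescence over background with P-value below 7% in all four replicate spots, showing protein binding; compounds were printed on slides so no solution concentration is given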;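 note: score is binary with 100 for all four spots passing and 0 otherwise; about 2 pmol printed per array spot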
Calls only. These rows are one share of the data; the hit share may differ from the screen's.

How did COc1ccccc1CN(C)C[C@@H]1OCc2cnnn2CCCC(=O)N([C@@H](C)CO)C[C@@H]1C do in these assays?
STAT3 SMM: inactive; ID4 binder: inactive; mut p53 SMM: inactive; c-Myc SMM: inactive

Results for CNC[C@@H]1Oc2c(NS(=O)(=O)c3cccs3)cccc2C(=O)N([C@@H](C)CO)C[C@@H]1C ?
STAT3 SMM: inactive; ID4 binder: inactive; mut p53 SMM: inactive; c-Myc SMM: inactive

Results for C[C@H](CO)N1C[C@H](C)[C@@H](CN(C)Cc2ccncc2)Oc2ccc(NC(=O)NC3CCCCC3)cc2CC1=O ?
STAT3 SMM: inactive; ID4 binder: inactive; mut p53 SMM: inactive; c-Myc SMM: inactive

Results for CNC[C@H]1Oc2ccc(NC(=O)c3ccncc3)cc2CC(=O)N([C@@H](C)CO)C[C@H]1C ?
STAT3 SMM: inactive; ID4 binder: inactive; mut p53 SMM: inactive; c-Myc SMM: inactive

Results for C[C@H](CO)N1C[C@H](C)[C@H](CN(C)C)OCCCC[C@H](C)Oc2ccc(NC(=O)CCC(F)(F)F)cc2C1=O ?
STAT3 SMM: inactive; ID4 binder: inactive; mut p53 SMM: inactive; c-Myc SMM: inactive

What do the screens show for `Cc1noc(C)c1NC(=O)N(C)C[C@H]1Oc2ccc(NS(=O)(=O)c3cn(C)cn3)cc2C(=O)N([C@H](C)CO)C[C@@H]1C`?
STAT3 SMM: inactive; ID4 binder: inactive; mut p53 SMM: inactive; c-Myc SMM: inactive

How did CC(C)NC(=O)N(C)C[C@@H]1OCCCC[C@@H](C)Oc2ccc(NS(=O)(=O)c3ccccc3)cc2C(=O)N([C@@H](C)CO)C[C@@H]1C do in these assays?
STAT3 SMM: inactive; ID4 binder: inactive; mut p53 SMM: inactive; c-Myc SMM: inactive

How did COc1ccc(CN(C)C[C@H]2Oc3ccc(NC(=O)Nc4ccc(C(F)(F)F)cc4)cc3C(=O)N([C@H](C)CO)C[C@@H]2C)cc1 do in these assays?
STAT3 SMM: inactive; ID4 binder: inactive; mut p53 SMM: inactive; c-Myc SMM: inactive

How did C[C@@H]1CN([C@H](C)CO)C(=O)Cc2cc(NC(=O)C3CC3)ccc2O[C@@H]1CN(C)C(=O)Nc1cccc2ccccc12 do in these assays?
STAT3 SMM: inactive; ID4 binder: inactive; mut p53 SMM: inactive; c-Myc SMM: inactive

How did CCOc1ccccc1NC(=O)CSc1nc2ccccc2c(=O)n1-c1cccc(C(F)(F)F)c1 do in these assays?
STAT3 SMM: inactive; ID4 binder: inactive; mut p53 SMM: inactive; c-Myc SMM: inactive

What do the screens show for `COc1ccc(NC(=O)N(C)C[C@@H]2Oc3ccc(NS(=O)(=O)c4ccccc4)cc3C(=O)N([C@@H](C)CO)C[C@H]2C)cc1`?
STAT3 SMM: inactive; ID4 binder: inactive; mut p53 SMM: inactive; c-Myc SMM: inactive

What do the screens show for `C[C@@H]1CCCCO[C@@H](CN(C)Cc2ccncc2)[C@@H](C)CN([C@@H](C)CO)C(=O)c2cc(NC(=O)Nc3ccccc3)ccc2O1`?
STAT3 SMM: inactive; ID4 binder: inactive; mut p53 SMM: inactive; c-Myc SMM: inactive

Results for Cc1noc(C)c1S(=O)(=O)N(C)C[C@@H]1OCc2cnnn2CCCC(=O)N([C@@H](C)CO)C[C@@H]1C ?
STAT3 SMM: inactive; ID4 binder: active; mut p53 SMM: inactive; c-Myc SMM: inactive

What do the screens show for `CC(C)NC(=O)N(C)C[C@H]1OCCCC[C@H](C)Oc2ccc(NC(=O)c3ccncc3)cc2C(=O)N([C@@H](C)CO)C[C@@H]1C`?
STAT3 SMM: inactive; ID4 binder: inactive; mut p53 SMM: inactive; c-Myc SMM: active

What do the screens show for `Cc1noc(C)c1S(=O)(=O)N(C)C[C@@H]1Oc2c(NS(=O)(=O)c3ccc(F)cc3)cccc2C(=O)N([C@H](C)CO)C[C@@H]1C`?
STAT3 SMM: inactive; ID4 binder: inactive; mut p53 SMM: inactive; c-Myc SMM: inactive

How did Cc1cccc(C)c1NC(=O)CN1CCN(CCCC(c2ccc(F)cc2)c2ccc(F)cc2)CC1 do in these assays?
STAT3 SMM: inactive; ID4 binder: inactive; mut p53 SMM: inactive; c-Myc SMM: inactive

How did COc1ccc(CN(C)C[C@@H]2OCCCC[C@@H](C)Oc3ccc(NS(=O)(=O)c4cccs4)cc3C(=O)N([C@@H](C)CO)C[C@H]2C)cc1 do in these assays?
STAT3 SMM: inactive; mut p53 SMM: inactive; c-Myc SMM: inactive

Results for C[C@H](CO)N1C[C@H](C)[C@H](CN(C)S(=O)(=O)c2cn(C)cn2)Oc2c(NC(=O)C3CCOCC3)cccc2C1=O ?
STAT3 SMM: inactive; ID4 binder: inactive; mut p53 SMM: inactive; c-Myc SMM: inactive

How did Cc1nn(CC(=O)Nc2sc3c(c2C#N)CCCC3)c(C)c1[N+](=O)[O-] do in these assays?
STAT3 SMM: inactive; ID4 binder: inactive; mut p53 SMM: inactive; c-Myc SMM: inactive

What do the screens show for `C[C@@H]1CCCCO[C@@H](CN(C)C(=O)C2CCCCC2)[C@H](C)CN([C@@H](C)CO)C(=O)c2cc(NC(=O)Nc3ccccc3)ccc2O1`?
STAT3 SMM: inactive; ID4 binder: inactive; mut p53 SMM: inactive; c-Myc SMM: inactive

Results for C=C1c2c(Cl)ccc(O)c2C(=O)C2C(=O)[C@]3(O)C(=O)C(C(N)=O)C(=O)[C@@H](N(C)C)[C@@H]3[C@@H](O)C12 (some centres not stated) ?
STAT3 SMM: inactive; ID4 binder: inactive; mut p53 SMM: inactive; c-Myc SMM: inactive

How did CC1(C)C(=O)N=C2c3ccccc3C(=O)C(=O)C21 (configuration not stated) do in these assays?
STAT3 SMM: inactive; mut p53 SMM: inactive; c-Myc SMM: inactive

How did C[C@H](CO)N1C[C@H](C)[C@@H](CN(C)CC2CC2)Oc2ccc(NC(=O)C3CCCCC3)cc2CC1=O do in these assays?
STAT3 SMM: inactive; ID4 binder: inactive; mut p53 SMM: inactive; c-Myc SMM: inactive

What do the screens show for `Cc1cc(C(=O)NCc2nc(-c3ccccc3)no2)ccc1[N+](=O)[O-]`?
STAT3 SMM: inactive; ID4 binder: inactive; mut p53 SMM: inactive; c-Myc SMM: inactive

Results for N#CCCN(CCC#N)C(=O)c1cc(-c2ccccc2)nc2ccccc12 ?
STAT3 SMM: inactive; ID4 binder: active; mut p53 SMM: inactive; c-Myc SMM: inactive

How did C/C=C1/[C@H](O[C@@H]2O[C@H](CO)[C@@H](O)[C@H](O)[C@H]2O)OC=C(C(=O)OC)[C@H]1CC(=O)OCCc1ccc(O)c(O)c1 do in these assays?
STAT3 SMM: inactive; mut p53 SMM: inactive; c-Myc SMM: inactive

What do the screens show for `Cc1noc(C)c1NC(=O)N(C)C[C@@H]1OCCCC[C@H](C)Oc2ccc(N(C)C)cc2C(=O)N([C@H](C)CO)C[C@H]1C`?
STAT3 SMM: inactive; ID4 binder: inactive; mut p53 SMM: inactive; c-Myc SMM: inactive

What do the screens show for `O=C(Nc1ccccc1O)C1=C[C@H](c2coc3ccccc3c2=O)C[C@H](OCCCCO)O1`?
STAT3 SMM: inactive; mut p53 SMM: inactive; c-Myc SMM: inactive

Results for CN(C)CCn1nnc2c(=O)oc3ccccc3c21 ?
STAT3 SMM: inactive; ID4 binder: inactive; mut p53 SMM: inactive; c-Myc SMM: inactive

What do the screens show for `Cc1nnc(SCC(=O)Nc2cccc(Cl)c2Cl)s1`?
STAT3 SMM: inactive; ID4 binder: inactive; mut p53 SMM: inactive; c-Myc SMM: inactive

An excerpt from above in order of length of the SMILES, rising:
What do the screens show for `O=C(Nc1ccccc1O)C1=C[C@H](c2coc3ccccc3c2=O)C[C@H](OCCCCO)O1`?
STAT3 SMM: inactive; mut p53 SMM: inactive; c-Myc SMM: inactive

What do the screens show for `Cc1noc(C)c1NC(=O)N(C)C[C@@H]1OCCCC[C@H](C)Oc2ccc(N(C)C)cc2C(=O)N([C@H](C)CO)C[C@H]1C`?
STAT3 SMM: inactive; ID4 binder: inactive; mut p53 SMM: inactive; c-Myc SMM: inactive

What do the screens show for `C[C@@H]1CCCCO[C@@H](CN(C)C(=O)C2CCCCC2)[C@H](C)CN([C@@H](C)CO)C(=O)c2cc(NC(=O)Nc3ccccc3)ccc2O1`?
STAT3 SMM: inactive; ID4 binder: inactive; mut p53 SMM: inactive; c-Myc SMM: inactive

Next part.
What do the screens show for `C[C@@H]1CN([C@@H](C)CO)C(=O)c2cc(NS(=O)(=O)c3cn(C)cn3)ccc2O[C@H]1CN(C)C(=O)Nc1ccc2c(c1)OCO2`?
STAT3 SMM: inactive; ID4 binder: inactive; mut p53 SMM: inactive; c-Myc SMM: inactive

How did CNC[C@H]1Oc2ccc(NC(=O)c3ccncc3)cc2C(=O)N([C@@H](C)CO)C[C@@H]1C do in these assays?
STAT3 SMM: inactive; mut p53 SMM: inactive; c-Myc SMM: inactive

How did Cc1noc(C)c1S(=O)(=O)N(C)C[C@@H]1OCCCC[C@@H](C)Oc2ccc(NC(=O)NC(C)C)cc2C(=O)N([C@H](C)CO)C[C@@H]1C do in these assays?
STAT3 SMM: inactive; ID4 binder: inactive; mut p53 SMM: inactive; c-Myc SMM: inactive

How did CC(=O)c1ccc(NC(=O)CSc2nnc(C34CC5CC(CC(C5)C3)C4)n2C)cc1 do in these assays?
STAT3 SMM: inactive; ID4 binder: inactive; mut p53 SMM: inactive; c-Myc SMM: inactive

Results for COc1ccc(NC(=O)N(C)C[C@@H]2Oc3ncc(C#CCN(C)C)cc3C(=O)N([C@H](C)CO)C[C@@H]2C)cc1 ?
STAT3 SMM: inactive; ID4 binder: inactive; mut p53 SMM: inactive; c-Myc SMM: inactive

How did Cc1noc(C)c1NC(=O)Nc1ccc2c(c1)C(=O)N([C@@H](C)CO)C[C@H](C)[C@@H](CN(C)C(=O)CCCN(C)C)OCCCC[C@@H](C)O2 do in these assays?
STAT3 SMM: inactive; ID4 binder: inactive; mut p53 SMM: inactive; c-Myc SMM: inactive

What do the screens show for `O=C(CSc1n[nH]c(-c2ccc(Cl)cc2)n1)c1ccc(Br)cc1`?
STAT3 SMM: inactive; ID4 binder: inactive; mut p53 SMM: inactive; c-Myc SMM: inactive

How did Cc1noc(C)c1NC(=O)N(C)C[C@@H]1OCCCC[C@H](C)Oc2ccc(N(C)C)cc2C(=O)N([C@H](C)CO)C[C@@H]1C do in these assays?
STAT3 SMM: inactive; ID4 binder: inactive; mut p53 SMM: inactive; c-Myc SMM: inactive

In the list so far, these have an aryl methoxy group.
How did COc1ccccc1CN(C)C[C@@H]1OCc2cnnn2CCCC(=O)N([C@@H](C)CO)C[C@@H]1C do in these assays?
STAT3 SMM: inactive; ID4 binder: inactive; mut p53 SMM: inactive; c-Myc SMM: inactive

How did COc1ccc(CN(C)C[C@H]2Oc3ccc(NC(=O)Nc4ccc(C(F)(F)F)cc4)cc3C(=O)N([C@H](C)CO)C[C@@H]2C)cc1 do in these assays?
STAT3 SMM: inactive; ID4 binder: inactive; mut p53 SMM: inactive; c-Myc SMM: inactive

What do the screens show for `COc1ccc(NC(=O)N(C)C[C@@H]2Oc3ccc(NS(=O)(=O)c4ccccc4)cc3C(=O)N([C@@H](C)CO)C[C@H]2C)cc1`?
STAT3 SMM: inactive; ID4 binder: inactive; mut p53 SMM: inactive; c-Myc SMM: inactive

How did COc1ccc(CN(C)C[C@@H]2OCCCC[C@@H](C)Oc3ccc(NS(=O)(=O)c4cccs4)cc3C(=O)N([C@@H](C)CO)C[C@H]2C)cc1 do in these assays?
STAT3 SMM: inactive; mut p53 SMM: inactive; c-Myc SMM: inactive

Results for COc1ccc(NC(=O)N(C)C[C@@H]2Oc3ncc(C#CCN(C)C)cc3C(=O)N([C@H](C)CO)C[C@@H]2C)cc1 ?
STAT3 SMM: inactive; ID4 binder: inactive; mut p53 SMM: inactive; c-Myc SMM: inactive
